Assay outcomes as filed in PubChem.
West Nile antiviral: West Nile virus antiviral activity, cell-based, CPE readout (AID 1621); West Nile virus-infected cells, CPE inhibition; higher % means a stronger effect; CPE inhibition, % at 10 µM; hits with a dose series show IC50 in µM; 290,000 tested, 0.02% active; in the data active means a potency from the dose series; inconclusive means CPE inhibition mostly from about 3.7% at the one dose, without a potency; inactive means the rest, 99 in 100 with CPE inhibition below about 2.2%; further: strong numbers were not always called active
P. falciparum M1AAP: P. falciparum M1AAP inhibitors, biochemical, fluorogenic H-Leu-NHMec substrate, 1536-well (AID 1445) | recombinant M1AAP, H-Leu-NHMec fluorogenic kinetic assay; higher % means a stronger effect | inhibition, % at 30 µM, or IC50 in µM where a hit was titrated | 220,000 tested, 0.42% active;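 active means primary inhibition above the hit cutoff, then over 50% inhibition at one or more dose response concentrations, cut at about 23% in these data, passing the limit was not always enough; inconclusive means conflicting primary data, or primary hits not chosen for dose response; inactive means low primary inhibition, or under 50% at every dose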;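 further: plate controls were DMSO full reaction for no effect and no enzyme background for full effect; strong numbers were not always called active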
K1F lysis inhibition: inhibition of K1F phage lysis, E. coli UTI89, bacterial capsule biogenesis inhibitors, alamar blue (AID 488966) | inhibition, % at 100 µM; hits with a dose series show IC50 in µM | E. coli UTI89 K1F phage lysis, alamar blue, 2 h; higher % means a stronger effect | 340,000 tested, 0.02% active;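 active means phage lysis inhibition, versus mean bacterial control, above a set limit; inconclusive means no clear call, values can overlap the other calls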;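 further: capsule biogenesis inhibitors block K1F phage lysis so surviving cells raise fluorescence; higher fluorescence means more inhibition of phage lysis; actives were called in the ten point dose series up to 300 µM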
RSV CPE inhibition: inhibition of RSV-induced cytopathic effect – HEp-2 cells, primary 10 µM value included (AID 2391); HEp-2 cells, RSV-induced CPE inhibition; higher % means a stronger effect; CPE inhibition, % at 10 µM, or IC50 in µM where a hit was titrated; 310,000 tested, 0.13% active; in the data active means a potency from the dose series; inconclusive means CPE inhibition mostly from about 23% at the one dose, without a potency; inactive means the rest, 99 in 100 with CPE inhibition below about 21%; further: strong numbers were not always called active
T cell modulator: T cell immune modulators affecting CD8 T cell-vesicle binding. 2C CD8+ T cell-vesicle binding, flow cytometry; hits give low values. calls only at 7 µM. 330,000 tested, 0.068% active;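 active means response, share of CD8 T cells binding vesicles, and their 90th percentile fluorescence all below set limits, cut at about 80% in these data, passing the limit was not always enough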
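Read-out – percent CD8+ FL2 mean versus row control · System – murine 2C transgenic CD8+ T lymphocytes · Times – 1.5 h cell–vesicle binding at 37 °C, then 20 min icy labelling · Control set – naked vesicles low, QL9 vesicles with vehicle high · Detection – cytometric PE anti-B7-1 and Alexa647 anti-CD8 signals after 1% paraformaldehyde fixation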
TNAP activation fold: stimulation of alkaline phosphatase TNAP activity – biochemical, luminescent, no phosphate acceptor, uHTS, primary screen (AID 1001). purified TNAP, luminescent activation assay, no phosphate acceptor; higher activation fold means a stronger effect. activation fold at 20 µM, or EC50 in µM where a hit was titrated. 200,000 tested, 0.03% active; in the data active means activation fold from about 3, or a potency from the dose series; inactive means the rest, 99 in 100 with activation fold below about 1.6; further: many of its hits are not listed in these tables
M17LAP inhibition: P. falciparum M17LAP inhibitors, primary screen, biochemical, fluorogenic H-Leu-NHMec substrate, 1536-well (AID 1619); recombinant M17LAP, H-Leu-NHMec fluorogenic kinetic assay; higher % means a stronger effect; 220,000 tested, 0.38% active; one-dose inhibition, % at 30 µM; IC50 in µM for titrated hits;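 active means compound inhibiting the enzyme by more than half at any dose during confirmatory dose-response retesting; inconclusive means strong single-dose inhibitors picked by rank but not retested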;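 further: plate controls were full reaction with DMSO carrier for no effect and no enzyme background for full effect; strong numbers were not always called active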
T cell modulator vesicle-bound %: further read-out of T cell modulator, marked with its call; double positive events, %; measured here: CD8+ vesicle-bound cell fraction;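 binding gate set so that unloaded-vesicle control wells show 10% double positive cells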
Starred values were filed as active, the others as inactive; i = inactive; ? = inconclusive; . = no result given; & = joins results of further samples; [ ] = remark or other dose. Some of the compounds tested; the hit share may differ from the screen's.

1: CC1=C(C#N)C(NC(=O)C(C)(C)C)(C(F)(F)F)C(=O)N1 (stereo not drawn)
2: O=C(C(Cc1ccccc1)N1C(=O)C2C3C=CC(C3)C2C1=O)N1CCCCCC1 (stereo not drawn)
3: Cc1[nH]nc2c1C(c1ccccc1)C1=C(CC(C)(C)CC1=O)N2 (stereo not drawn)
4: N#Cc1cc([N+](=O)[O-])cnc1NCC(O)CO (stereo not drawn)
5: Cc1cc(C)c2c(c1)C1C=CCC1C(c1ccc(S(=O)(=O)N3CCOCC3)cc1)N2 (stereo not drawn)
6: Cc1cc(OC(=O)c2cc(F)c(F)cc2Cl)nc(C)n1
7: Cc1cc(C)n(CC(=O)N/N=C/c2ccc(C)o2)n1
8: COc1ccc(/C=C2\NC(=S)N(CC3CCCO3)C2=O)c(OC)c1 (stereo not drawn)
Compound | 1 | 2 | 3 | 4 | 5 | 6 | 7 | 8
West Nile antiviral | 0.4% | 0.0% | 2.1% | 0.2% | -0.3% | -0.5% | -0.4% | -0.1%
P. falciparum M1AAP | 4% | 5% | 14% | 3% | 7% | 6% | 7% | 20%
K1F lysis inhibition | 0.5% | 0.4% | 0.0% | 0.3% | 0.2% | 0.2% | -0.1% | 4.5%
RSV CPE inhibition | 1.4% | 0.4% | 0.8% | 0.6% | 12µM* | 0.1% | 1.4% | 1.1%
T cell modulator | i | i | i | i | i | i | i | i
T cell modulator vesicle-bound % | 23 | 43 | 22 | 11 | 46 | 40 | 16 | 36
TNAP activation fold | 1 | 1.1 | 1 | 1 | 1.1 | 1.1 | 1 | 0.9
M17LAP inhibition | 11% | -1% | -6% | 20% | 9% | -3% | 15% | -1%

9: C/C(CC(=O)Nc1cccc2c1CCCC2)=N\NC(=O)c1ccccc1N
10: COc1ccc(OCCn2cc(/C(N)=N/O)c3ccccc32)cc1
11: Cc1cc2cc3c(N)[nH]nc3nc2cc1C
12: O=C(Nc1nc2c(s1)CN(Cc1ccccc1)CC2)c1cccc(S(=O)(=O)N2CCc3ccccc32)c1
13: CCN(CC(=O)NC1CCS(=O)(=O)C1)c1ccc(S(C)(=O)=O)cc1[N+](=O)[O-] (stereo not drawn)
14: CCN(CC)CCN1C(=O)Cn2c(C)c(C)c3cccc1c32
15: Cc1cc(-c2sccc2C)nc(-n2cccc2)n1
16: CCOC(=O)CC(=O)Nc1ccccc1C(=O)O
Compound | 9 | 10 | 11 | 12 | 13 | 14 | 15 | 16
West Nile antiviral | -0.4% | 0.2% | -0.1% | -0.4% | 0.0% | 0.4%&-0.5% | 0.7% | -0.2%
P. falciparum M1AAP | 9% | -2% | -1% | 17% | -1% | 0%&-3% | 4% | 4%
K1F lysis inhibition | 1.5% | 6.2% | 0.2% | 0.5% | 1.9% | 0.1%&0.1% | -0.1% | 0.3%
RSV CPE inhibition | 0.9% | 5.3% | -2.6% | 15% | 0.4% | -1.6%&-0.9% | 0.7% | 1.4%
T cell modulator | i | i | i | i | i | i | i | i
T cell modulator vesicle-bound % | 12 | 35 | 18 | 10 | 25 | 9&44 | 11 | 42
TNAP activation fold | 1 | 1.1 | 1 | 1 | 1 | 1&1 | 1.1 | 1.1
M17LAP inhibition | -15% | 8% | 4% | -10% | 7% | -7%&-2% | -11% | 5%

17: Cc1ccc(S(=O)(=O)Nc2ccccc2-c2ccccc2NS(=O)(=O)c2ccc(C)cc2)cc1
18: CC(C)(C)c1ccc(C(=O)c2c[nH]c(C(=O)NCCCn3ccnc3)c2)cc1
19: C=CCn1c(CSCc2ccccc2)nnc1SCC(=O)NCc1ccccc1
20: Cc1ccc(CS(=O)(=O)CCC(=O)N2CCOCC2)cc1
21: CCOC(=O)c1ccc(NC(=O)CCOc2ccc(OC)cc2)cc1
22: COc1ccc(/C=N/Nc2nonc2N)cc1
23: CCOC(=O)CC(=O)CSc1nc(-c2ccccc2)cc(-c2ccc(Cl)cc2)c1C#N
24: COc1ccc(/C=C/c2ccncc2)cc1
Compound | 17 | 18 | 19 | 20 | 21 | 22 | 23 | 24
West Nile antiviral | -0.1% | ? | 0.0% | -0.2% | 0.8% | -0.1% | -0.8% | -0.5%
P. falciparum M1AAP | 17% | -14% | 3% | -3% | 4% | 4% | 1% | -7%
K1F lysis inhibition | 0.0% | -0.6% | -0.4% | 0.1% | 0.7% | -0.4% | 0.4% | 0.7%
RSV CPE inhibition | -1.2% | 15% | 0.9% | -0.1% | 3.4% | -3.0% | -0.4% | 13%
T cell modulator | i | i | i | i | i | i | i | i
T cell modulator vesicle-bound % | 3 | 50 | 53 | 15 | 53 | 39 | 22 | 1
TNAP activation fold | 0.9 | 1 | 1.1 | 1.1 | 1.2 | 1.1 | 1.1 | 1.1
M17LAP inhibition | 6% | 2% | 8% | 9% | -8% | 3% | 2% | -6%

Quoted from above, two compounds:
23: CCOC(=O)CC(=O)CSc1nc(-c2ccccc2)cc(-c2ccc(Cl)cc2)c1C#N
24: COc1ccc(/C=C/c2ccncc2)cc1
Compound | 23 | 24
West Nile antiviral | -0.8% | -0.5%
P. falciparum M1AAP | 1% | -7%
K1F lysis inhibition | 0.4% | 0.7%
RSV CPE inhibition | -0.4% | 13%
T cell modulator | i | i
T cell modulator vesicle-bound % | 22 | 1
TNAP activation fold | 1.1 | 1.1
M17LAP inhibition | 2% | -6%

More results follow.
25: CCOC(=O)C(/C(N)=N/C(=O)Nc1ccccc1)=C(\C)O
26: O=C(CSc1ncnc2c1cnn2CCc1ccccc1)Nc1ccc(F)cc1
27: O=C(Nc1ccc2c(c1)OCO2)c1ccc[n+]([O-])c1
28: CC(C)(C)C1CCC2(CC1)NC(CO)(CO)CO2 (stereo not drawn)
29: COC(/C=C/Nc1ccc(Br)cc1)=C(C#N)C#N
30: O=C(Oc1ccc2cc(Br)ccc2c1)c1cccnc1
31: Cc1nnc(SCC(=O)NCc2cccs2)[nH]c1=O
32: Cc1c(N=Cc2ccc(Br)s2)cccc1[N+](=O)[O-]
Compound | 25 | 26 | 27 | 28 | 29 | 30 | 31 | 32
West Nile antiviral | 0.0% | 0.1% | -0.1% | 0.5% | -0.5% | 0.4% | 0.7% | 0.1%
P. falciparum M1AAP | -1% | 1% | 0% | 2% | 11% | -3% | 9% | 0%
K1F lysis inhibition | 1.2% | . | 0.0% | 0.3% | 3.9% | 0.1%[50 µM] | 0.4% | 2.9%
RSV CPE inhibition | -0.3% | . | -1.3% | 2.8% | -2.1% | ? | 0.9% | -1.0%
T cell modulator | i | . | i | i | i | i | i | .
T cell modulator vesicle-bound % | 46 | . | 29 | 48 | 17 | 31 | 27 | .
TNAP activation fold | 1.1 | 1.1 | 1.1 | 1 | 1.1 | 1 | 1.1 | 1
M17LAP inhibition | 12% | 6% | 6% | -10% | -7% | -8% | -2% | -4%

33: COc1ccc(CN2CC(C(=O)NCCC3=CCCCC3)CC2=O)cc1 (stereo not drawn)
34: COc1ccc(N(C)S(=O)(=O)c2c(C)[nH]c(=O)[nH]c2=O)cc1
35: Cc1[nH]nc(-c2ccc(O)cc2O)c1-c1ccc(Cl)cc1
36: CC(NC(=O)OC1CCCCC1)N1C(=O)C2C3C=CC(C3)C2C1=O (stereo not drawn)
37: N=c1c2c(-c3ccccc3)c(-c3ccccc3)n(Cc3ccccc3)c2ncn1CCCO
38: COc1ccc(S(=O)(=O)/N=C2/C=CC(=O)C(C)=C2C)cc1
39: Nc1ccc2oc(CCc3ccccc3)nc2c1
40: CCOC(=O)c1cnn(-c2ccccc2)c1NC(=O)C(F)(F)C(F)(F)C(F)(F)F
Compound | 33 | 34 | 35 | 36 | 37 | 38 | 39 | 40
West Nile antiviral | -0.7% | -0.1% | -1.0% | 0.1% | ? | 0.0% | -0.2% | 0.4%
P. falciparum M1AAP | -4% | -1% | 5% | 2% | 6% | -2% | 12% | 6%
K1F lysis inhibition | -0.2% | 0.3% | -0.6% | -0.2% | 0.0% | -1.1% | 0.3% | 2.9%
RSV CPE inhibition | 2.0% | 2.4% | 20% | 2.2% | ? | 1.4% | 2.1% | 2.2%
T cell modulator | i | i | i | i | i | i | i | i
T cell modulator vesicle-bound % | 27 | 16 | 30 | 17 | 38 | 28 | 56 | 23
TNAP activation fold | 1 | 1.2 | 1.3 | 1.1 | 1.1 | 1.1 | 1.1 | 1.2
M17LAP inhibition | -2% | -6% | 2% | -2% | 23% | 5% | -8% | 9%

41: OCc1nnn(-c2cccc(C(F)(F)F)c2)c1CO
42: CC(=O)NC(O)C(=O)c1ccco1 (stereo not drawn)
43: COC(=O)Sc1nnc(-c2ccc(Br)cc2)o1
44: CCN(CC)CCOc1ccc2c(c1)C(=NO)c1cc(OCCN(CC)CC)ccc1-2
45: C/C(O)=c1/ccc2cccc3nc(C)nc1c23
46: O=C(/C=C/c1ccccc1Cl)Nc1ccncc1
47: Cc1[nH]c(=O)c(C#N)c2c1CSC(C)(C)C2
48: CCc1ccc(OCCNC(=O)c2cc(SC)ccc2Cl)cc1
Compound | 41 | 42 | 43 | 44 | 45 | 46 | 47 | 48
West Nile antiviral | 0.1% | 0.3% | 0.1% | -1.0% | 0.6% | -0.1% | 0.3% | .
P. falciparum M1AAP | 4% | 10% | 1% | 7% | 4% | 2% | 10% | -5%
K1F lysis inhibition | 0.2% | 2.5% | . | -0.2% | -0.4% | -0.2% | -0.8% | 0.2%
RSV CPE inhibition | 0.8% | 1.5% | 1.6% | 3.3% | 3.1% | 1.8% | 0.4% | 1.3%
T cell modulator | i | i | i | i | i | i | i | i
T cell modulator vesicle-bound % | 50 | 40 | 16 | 32 | 33 | 23 | 48 | 31
TNAP activation fold | 1.1 | 1 | 1 | 0.8 | 1 | 1.1 | 1 | 1.1
M17LAP inhibition | -8% | 4% | 5% | 6% | 3% | 13% | 6% | 8%

Individual results from the results shown:
#46 in P. falciparum M1AAP is entered as 2%
#44 in RSV CPE inhibition is entered as 3.3%
#47 in P. falciparum M1AAP is entered as 10%

Other entries follow:
49: Cn1nc(C(F)(F)F)c(C(=O)Nc2ccc(C(F)(F)F)cc2)c1Cl
50: COc1cc(NC(=O)c2ccco2)c(C(=O)O)cc1OC
51: O=C(NCCCN1CCCCCC1)C1CC(=O)N(C2CCCC2)C1 (stereo not drawn)
52: CCOC(=O)c1cnc2c(N=Nc3ccccc3)c(N)nn2c1N
53: O=C(OC1CCCCC1)c1ccc2c(c1)C1C=CCC1C(C(=O)O)N2 (stereo not drawn)
54: Cc1cc(C)c2[nH]c(=O)c(CN(Cc3ccco3)C(=O)c3cccs3)cc2c1
Compound | 49 | 50 | 51 | 52 | 53 | 54
West Nile antiviral | 0.5% | 0.1% | 0.1% | 0.0% | . | 0.0%
P. falciparum M1AAP | 5% | 4% | -9% | 2% | 15% | 6%
K1F lysis inhibition | -0.1% | 0.8% | 1.9% | 0.8% | . | .
RSV CPE inhibition | 7.8% | 0.7% | 1.2% | 3.4% | . | .
T cell modulator | i | i | i | i | . | .
T cell modulator vesicle-bound % | 21 | 11 | 21 | 51 | . | .
TNAP activation fold | 1 | 1.1 | 1.1 | 1.1 | 0.9 | 1.1
M17LAP inhibition | 5% | 18% | 8% | 1% | 32% | 17%
